# VACV mCherry inh = inhibitors of vaccinia virus infection (mCherry reporter signal). Potency, µM (top dose mostly 36.5 µM), inactives show at the top dose activity change, negative = inhibition, hits mostly inhibitors. Vaccinia virus mCherry reporter infection, fluorescence; about a quarter of the inactives have no number. 310,000 compounds, 0.63% hits; active = well fitted inhibition curve with a large enough effect; inconclusive = small, poorly fitted or top-dose-only effect; inactive = no such curve, though single readings can be large or run the other way; tested in A549 cells; further: nearly all actives have a fitted effect of over 35% in size; inactives centre near -10
# VACV Venus inh = vaccinia inhibition (Venus reporter). Vaccinia virus Venus reporter expression, fluorescence. Potency, µM (titrated, usually from 36.5 µM), inactives show top-dose activity change, negative = inhibition, most hits filed as inhibitors. 330,000 compounds, 0.46% hits; active means well fitted inhibition curve with a large enough effect; inconclusive means small, poorly fitted or top-dose-only effect; inactive means no such curve, though single readings can be large or run the other way; tested in A549 cells; further: nearly all actives have a fitted effect of over 30% in size; inactives centre near -10
# The depositor's hits bear a star; i = inactive; ? = inconclusive; . = no result given; & = joins results of further samples; [ ] = remark or other dose. On the % scale 0 is the no-effect control and ±100 the full control effect; potency means the concentration at half of the fitted maximal effect.
SMILES,VACV mCherry inh,VACV Venus inh
COc1ccc(N(CC(=O)Nc2c(C)n(C)n(-c3ccccc3)c2=O)S(=O)(=O)c2ccc(C)cc2)cc1,-4.5%,-18.2%
Cn1c(N)c(C(=O)COC(=O)/C=C/c2ccc(F)cc2)c(=O)n(C)c1=O,i,-17.3%
Cn1c(=O)oc2cc(S(=O)(=O)NC(Cc3ccccc3)C(=O)NCc3ccccc3Cl)ccc21 (stereo not given),-18.3%,-9.9%
Cc1cccc(CSc2ccc3nnc(-c4cccnc4)n3n2)c1,-11.1%,-4.3%
CCOC(=O)c1cccc(NC(=O)CCNS(=O)(=O)c2cccc3nonc23)c1,-6.3%,-10.0%&0.2%
Cc1ccc(-c2ccc(=O)n(CC(=O)NCCCN3CCCCC3C)n2)cc1 (stereo not given),-8.2%,-15.6%
Cc1cccc(Cc2nnc(CCC(=O)NCc3cn4ccccc4n3)o2)c1,-2.4%,-7.3%
CCOC(=O)CN1CC(C)(C)N(CC(=O)OCC)CC1(C)C,i,-13.2%
COc1ccc(Br)cc1CNC(=O)c1ccc2c(c1)nc1n2CCCCC1,-20.0%,-8.8%
CCN(c1ccc(OC)cc1)S(=O)(=O)c1ccc2c(c1)CCN2C(=O)CCC(=O)O,-4.9%,-8.8%
CCOC(=O)C(C(=O)OCC)C(C(=O)OCC)N1CCOCC1 (stereo not given),i,0.0%
CCOC(=O)[C@]12CCCC=C1N(Cc1cccc3ccccc13)C(=O)[C@H](CC(=O)N1CCN(C(=O)C3CC3)CC1)C2,-12.8%,-10.3%
O=C(O)c1ccc([N+](=O)[O-])cc1-c1cc([N+](=O)[O-])ccc1C(=O)O,i,1.5%
O=C(NCCCN1CCN(c2ccc(F)cc2)CC1)Nc1ccc(Cl)cc1,-16.1%,-9.1%
Cn1c(SCc2cccc(F)c2)nnc1-c1ccncc1,-11.2%,1.4%
CCOc1cc(Br)cc(C2NC(=O)c3c(sc4c3CCN(C)C4)N2)c1O (stereo not given),i,-10.5%
COc1ccc(Cl)cc1NC(=O)CN(C)C(=O)c1cc(-c2ccncc2)nc2ccccc12,-8.7%,-20.2%
Cc1ccc(NC(=O)CN2C(=O)NC3(CCCCCCC3)C2=O)cc1C,-6.5%,-6.9%
COc1cccc(C2C(C(=O)Nc3nc4ccccc4s3)=C(C)NC3=C2C(=O)CC(C)(C)C3)c1OC (stereo not given),.,-13.7%
CCOC(=O)C1CCN(C(=O)c2cccc(NC(=O)C(CC)CC)c2)CC1,-13.2%,-8.1%
COc1ccc(CCC(=O)Nc2ccc(S(=O)(=O)N3CCOCC3)cc2)cc1OC,-8.1%,-27.1%
O=C(Nc1cccc(NC(=O)c2cccs2)c1)c1cccnc1,i,-4.4%
CC1CCN(Cc2nc3c(c(=O)n(C)c(=O)n3C)n2CCCc2ccccc2)CC1,.,-20.8%
O=C(C1CC1)N1CCCC(c2ccc(Cl)cc2)=N1,-9.8%,-0.2%
Cc1ccc(Cl)cc1NC(=O)c1ccc(NC(=O)CCC(=O)O)cc1,-10.4%,-1.6%

# (further entries)
SMILES,VACV mCherry inh,VACV Venus inh
CC(=O)c1ccccc1-c1ccc2c(c1)CC(CNC(=O)C[C@@H]1C[C@@H](C)NC(=S)N1)O2 (stereo not given in full),-10.6%,1.2%
Cc1sc2nc(SCCN(C)C)n(-c3ccccc3)c(=O)c2c1-c1ccc(F)cc1,-27.7%,-19.7%
COc1cc(OC)nc(C(NC(=O)C2CCN(Cc3ccc(Oc4ccccc4)cc3)CC2)c2ccccc2C)n1 (stereo not given),25.3%,-12.3%
COc1ccc(C(C[N+](=O)[O-])c2c(C)[nH]c3ccccc23)cc1OC (stereo not given),?,-28.3%
CC(=O)Nc1ccc(Oc2cc(C#N)c(C#N)cc2N2CCCCCC2)cc1,?,?
COc1cccc(C(=O)Nc2ccc3c(c2)OCO3)c1OC,20.0%,-0.9%
O=C(O)c1c(Br)c(Br)c(Br)c(Br)c1C1c2ccc(O)cc2Oc2cc(O)ccc21,-13.4%,135.1%[activator]
CCCN1CNc2c(c(=O)[nH]c(=S)n2CCc2ccc3c(c2)OCCO3)C1,-17.6%,-18.9%
CC(=O)c1ccc(OCC(=O)N(C)C2CCS(=O)(=O)C2)cc1 (stereo not given),i,-12.2%
CCN(c1ccc(NC(=O)COC(=O)/C=C/c2cccs2)cc1)C(C)C,1.8%,14.7%
CN(C)C(=S)Nc1ccc2ccccc2c1,-2.1%,0.0%
COc1ccc(Cl)cc1C(=O)Nc1ccc(N(C)C(C)=O)cc1,11.6%,-5.9%
O=S(=O)(NC1CCCC1)c1ccc(S(=O)(=O)N2CCc3ccccc32)cc1,?,?
Cc1ccnc(NC(c2cc(C)ccc2O)c2ccc3cccnc3c2O)c1 (stereo not given),-6.9%,-8.6%
CCCNC(=O)C(Cc1ccc(C(F)(F)F)cc1)NC(=O)c1ccc2ccccc2n1 (stereo not given),i,-25.4%
COc1ccc(-c2cc(C(=O)OCC(=O)c3cccc(OC)c3)c3cccc(Cl)c3n2)cc1,-18.2%,-17.5%
Cn1c(=O)[nH]c(=O)c2c1nc1n2CC(O)CN1c1ccccc1 (stereo not given),i,-21.1%
Cc1ccc(S(=O)(=O)N(C)C)cc1-n1c(SCC(=O)Nc2ccc(F)c(F)c2F)nc2ccccc2c1=O,i,-4.9%
Cc1nc(NC(=O)c2cnccn2)ccc1Br,i,-9.7%
COc1ccc(CCCc2nnc(SCC(=O)Nc3ccc(Cl)cc3)o2)cc1,-14.0%,-11.0%
Nc1c(Br)cc2oc(-c3ccccc3)nc2c1Br,-7.5%,-5.9%
OC1(c2ccc(Cl)cc2)CCN(Cc2nc(-c3cnccn3)no2)CC1,-8.0%,-1.2%
O=C(CSc1nc2ccccc2nc1Cc1ccc(Cl)cc1)N1CCc2ccccc21,-20.7%,-14.3%
COc1ccc(N(C(=O)CNC(=O)c2ccco2)C(C(=O)NCC2CCCO2)c2ccc(OC)c(OC)c2)cc1 (stereo not given),-3.2%,-10.4%
COc1cccc(NC(=O)c2oc3ccccc3c2NC(=O)Cc2cccc(C)c2)c1,-13.5%,-4.7%

# The list goes on:
SMILES,VACV mCherry inh,VACV Venus inh
O=C1CC(=O)N2CCSC2=N1,i,-3.8%
Oc1ccc(C=Nc2ccccc2-c2nc3ccccc3[nH]2)c(O)c1,i,-17.9%
COc1ccc(NC(=O)COC(=O)CNC(=O)C2CCCCC2)cc1,1.1%,1.5%
CCCCOc1ccc(C(=O)CCN2CCCCC2)cc1,-6.6%,-15.9%&-21.1%
CCc1cccc(NC(=O)C(NC(=O)C2CCCCC2)C(C)C)c1 (stereo not given),-20.9%,-11.6%
Fc1ccc(-c2nnc(SCc3cccnc3)o2)cc1,-6.5%,-9.7%
CC1CN(S(=O)(=O)c2cccc(C(=O)OC/C(O)=C(\C#N)c3nc4ccccc4[nH]3)c2)CC(C)O1 (stereo not given),2.6%,-16.6%
Cc1cc(C)c2oc(=O)cc(CN3CCC(C)CC3)c2c1,i,-2.7%
NC(=O)c1ccccc1NC(=O)CN1CCCCCC1,-9.2%,-0.8%
CCN1CCN(C(=O)C2CCC(=O)N(Cc3cccc(C(F)(F)F)c3)C2)CC1 (stereo not given),0.2%,-2.2%
CC1(CC(=O)NNC(=O)Nc2ccccc2)OCCCO1,-6.2%,-6.5%
C=CCN1C(=O)/C(=C2/Sc3ccccc3N2C)SC1=Nc1c(C)n[nH]c1C,.,-9.1%
COc1cc(C)ccc1OCc1cc(C(=O)NC(c2ccccn2)C(F)(F)F)no1 (stereo not given),?,?
CC(C)OP(=O)(OC(C)C)C(O)c1ccc(Br)cc1 (stereo not given),i,-20.0%
COc1ccc2[nH]c(=O)c(CN(C(=O)c3ccccn3)c3ccccc3)cc2c1,.,5.8%
Cc1ccc(C)c(NC(=O)Cn2ccn(-c3ccc(F)cc3)c(=O)c2=O)c1,-9.7%,-2.5%
COc1cc(C2CC(=O)N(c3ccc(C)c(Cl)c3)C3=C2C(=O)OC3)cc(OC)c1OC (stereo not given),-3.5%,-8.4%
COC1[C@H](OC(N)=O)C(O)[C@H](Oc2ccc3c(O)c(NC(=O)c4ccc(O)c(CC=C(C)C)c4)c(=O)oc3c2C)OC1(C)C (stereo not given in full),i,-12.3%
O=C(N/N=C/c1ccc(N2CCOCC2)s1)c1ccc(O)cc1,-14.7%,-16.7%
NC(=O)CC(NC(=O)Cc1cccc2ccccc12)c1ccc(NC2CCCCCC2)c([N+](=O)[O-])c1 (stereo not given),-25.3%,?
COc1ccccc1OCc1n[nH]c(=S)n1Cc1ccccc1,-14.5%,-12.7%
O=C(NC1CC1(c1ccccc1)c1ccccc1)c1ccccc1 (stereo not given),-26.5%,-16.2%
C=CCOc1c(CNc2ccc3[nH]c(=O)[nH]c3c2)cccc1OC,-7.1%,-1.8%
CCOC(=O)Cn1c(=O)c2c(nc(N3CCOCC3)n2C)n(C)c1=O,-17.7%,-7.8%
CCOc1ccccc1NC(=O)c1cc(-c2ccncc2)nc2c(Cl)cccc12,-8.3%,5.8%

# Next results follow.
SMILES,VACV mCherry inh,VACV Venus inh
Cc1ccc(C)c(NC(=O)CSc2nnc(C)n3c2cc2occc23)c1,-4.5%,1.0%
O=S(=O)(c1ccc2c(c1)OCCO2)N1CCc2ccccc21,-5.9%,-8.5%
Nc1ncnc2c1ncn2[C@@H]1O[C@H](CNCc2ccc(-c3cc(C(F)(F)F)ccc3Cl)o2)[C@@H](O)[C@H]1O,-20.4%,-1.3%
COc1cc(NC(=O)c2ccccc2[N+](=O)[O-])c(C(=O)O)cc1OC,-1.6%,-2.3%
O=C1CC(c2ccccc2)C(C(=O)O)N1 (stereo not given),13.3%,6.4%
CCn1c(C(c2ccccc2)c2ccccc2)n[nH]c1=S,.,-0.7%
Cc1ccccc1Cn1nnc2c(=O)[nH]c(C3CCCN(C(=O)c4ccc(C(C)(C)C)cc4)C3)nc21 (stereo not given),-15.1%,-9.8%
CC(C)(C)c1nnc(N/N=C/c2ccccc2O)n(N)c1=O,2.82µM*,?
CCCCN(C)c1c(C)nc2ccc(C(=O)Nc3ccc(OC)c(OC)c3)cn12,9.0%,-15.8%
COc1ccc(-c2cc(C(=O)Nc3cc(S(N)(=O)=O)ccc3C)c3ccccc3n2)cc1OC,-12.3%,-21.9%
Cn1cnc2nc(Cl)nc(Cl)c21,?,?
C=CCn1c(SCC(=O)N2CCOCC2)nnc1C(C)NC(=O)c1ccccc1 (stereo not given),-7.4%,-11.7%
COc1ccc(NC(=O)CCCOc2ccc(C)cc2)cc1S(=O)(=O)N1CCCCC1,i,-22.0%
Cc1ccc(CC2(C)C(=O)Nc3c(Cl)ccc(Cl)c32)cc1 (stereo not given),i,-20.0%
O=S(=O)(NCC(c1ccco1)N1CCN(c2ccccc2F)CC1)c1ccc(F)cc1 (stereo not given),-11.8%,-2.9%
O=C(NCc1ccccc1)N(Cc1cc2cc3c(cc2[nH]c1=O)OCO3)CC1CCCO1 (stereo not given),.,-20.5%
O=C(O)c1cc(C(F)(F)F)nc2c(C(F)(F)F)cccc12,i,-5.3%
CCOc1ccccc1NC(=O)CSc1nnc(-c2cnccn2)n1CC,-15.6%,-7.5%
CC(=O)c1cc2c(cc1NC(=O)CN1CCN(c3cccc(C(F)(F)F)c3)CC1)OCO2,-1.1%,-6.6%
CCCOc1ccc(NC(=O)CC2C(=O)N(c3ccc(F)cc3)C(=O)N2CC(C)C)cc1 (stereo not given),-3.4%,-7.6%
Cc1ccc(C(=O)NCC(=O)Nc2cc(C)ccn2)cc1,i,-9.4%
COC(=O)c1ccncc1N,i,-7.7%
CCOC(=O)C1=C(O)/C(=C/N(C)C)N=C1C,.,9.5%
Cc1ccc(C)c(NC(=O)c2nc(S(=O)(=O)Cc3ccc(F)cc3)ncc2Cl)c1,-17.2%[7.34 µM],-13.6%[7.34 µM]
COc1ccc2oc(=O)c(C(=O)N3CCN(C(=O)c4ccco4)CC3)cc2c1,i,-6.8%

# Structural class: the compounds so far with bromine.
SMILES,VACV mCherry inh,VACV Venus inh
COc1ccc(Br)cc1CNC(=O)c1ccc2c(c1)nc1n2CCCCC1,-20.0%,-8.8%
CCOc1cc(Br)cc(C2NC(=O)c3c(sc4c3CCN(C)C4)N2)c1O (stereo not given),i,-10.5%
O=C(O)c1c(Br)c(Br)c(Br)c(Br)c1C1c2ccc(O)cc2Oc2cc(O)ccc21,-13.4%,135.1%[activator]
Cc1nc(NC(=O)c2cnccn2)ccc1Br,i,-9.7%
Nc1c(Br)cc2oc(-c3ccccc3)nc2c1Br,-7.5%,-5.9%
CC(C)OP(=O)(OC(C)C)C(O)c1ccc(Br)cc1 (stereo not given),i,-20.0%

# Next results:
SMILES,VACV mCherry inh,VACV Venus inh
CCOC(=O)C(C(=O)OCC)[C@@H]1CS(=O)(=O)C[C@H]1C(C(=O)OCC)C(=O)OCC,.,-15.6%
O=C(NCc1ccc2c(c1)OCO2)c1cccc(S(=O)(=O)N2CCCC2)c1,i,-9.6%
COc1cc(C2C(C(=O)c3ccc(C)o3)=C(O)C(=O)N2c2cc(C)on2)ccc1O (stereo not given),-25.0%[1.46 µM],-14.1%
CCc1sc(C(=O)NC2CCN(C)CC2)cc1Br,i,-22.5%
Cc1ccc(-n2nc3c(c2NC(=O)c2ccc4c(c2)OCO4)CS(=O)C3)cc1 (stereo not given),-15.0%,-2.2%
Cc1c(C)c2cc(Cl)c(OCc3nn[nH]n3)cc2oc1=O,.,-15.0%
Nc1nonc1-n1nnc(C(=O)N/N=C/C=C/c2ccccc2)c1CSC1=NCCS1,?,?
COc1ccc(C2(N3CCN(c4cc(C)ccc4C)CC3)C(=O)c3ccccc3C2=O)cc1,-11.8%,-3.7%
Cc1ccc(CS(=O)Cc2ccc(C(=O)NCc3ccc4c(c3)OCO4)o2)cc1 (stereo not given),i,-10.9%

# Compound activity as filed in PubChem BioAssay.
